# Rango dissoc inh = qHTS Assay for Inhibitors of RanGTP induced Rango (Ran-regulated importin-beta cargo) - Importin beta complex dissociation. Potency, µM (top dose mostly 46.1 µM), for the others: at the highest dose activity change, negative = inhibition. AID 540253, 2011. Biochemical FRET Rango-importin beta, RanGTP-induced dissociation. hit rate 0.071% among 340,000; active means falling FRET ratio curve, often poorly fitted, with flat reads before Ran was added; inconclusive means other falling curves, or compound fluorescence or quenching; inactive means flat or rising ratio curve;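 note: potency is the fitted concentration of half-maximal effect; % of control where 0% means no effect; nearly all actives have a fitted effect of over 45% in size; -100% = wells without RanGTP and RCC1; the record marks most hits as doubtful in a second field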
#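 Two FRET readings bracket the reaction: one 5 min after compound meets Rango–importin beta, another 45 min after RanGTP-RCC1 (0.6 uM Ran, 0.2 uM RCC1, 2 mM GTP) is added. Only the second defines inhibition.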
# Rango complex inh = qHTS Assay for Inhibitors of Rango (Ran-regulated importin-beta cargo) - Importin beta complex formation; Potency, µM (top dose mostly 92.2 µM), for the others: at the highest dose inhibition of complex formation; Rango CFP/YFP FRET sensor + importin beta, 45 min; hit rate 0.031% among 340,000; Importin subunit beta-1 (Homo sapiens), Q14974; active = rising FRET ratio curve, often small or poorly fitted; inconclusive = mostly compound fluorescence or quenching in the first reads; inactive = flat curves in all reads;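 note: potency is the fitted concentration of half-maximal effect; 0% = DMSO wells and 100% = buffer wells lacking importin beta; nearly all actives have a fitted effect of over 15% in size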
#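 FRET biosensor (snurportin 1 IBB flanked by EYFP and cerulean), 50 nM, with compound 5 min, then 0.125 microM importin beta in PBS, 1 mM DTT, 0.02% Tween-20, 0.1% BSA. CFP/YFP ratio read after 45 min at room temperature; pre-read flags interference.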
# miR-21 FLuc = qHTS Assay for Modulators of miRNAs and/orActivators of miR-21 | AID 2288, 2010 | HeLa miR-21 FLuc reporter, luciferase, 48 h | 340,000 tested, under 10 active | Potency, µM (series often up to 38.3 µM), inactives show at the top dose reporter change, positive = more light; active = well fitted rising curve with a large enough effect; inconclusive = small, poorly fitted or top-dose-only effect; inactive = no such curve, though single readings can be large or run the other way;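 note: % of control where 0% means no effect; miR-21 action dims this reporter so a rising signal means less miR-21 action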
#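 Luminescence from a firefly luciferase reporter carrying a miR-21 binding site downstream, stably expressed under a CMV promoter in HeLa cells that make miR-21 endogenously, reports miRNA modulation after 48 h compound exposure up to approximately 40uM final.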
# GLA inh pH 4.5 = qHTS Assay for Inhibitors of Human alpha-Galactosidase at pH 4.5. activity change, negative = inhibition, % at 105 µM. AID 1467, 2008. Alpha-galactosidase A (Homo sapiens), P06280. 230,000 tested, under 10 active. purified enzyme, 4-MU-alpha-Gal fluorescence, pH 4.5; inconclusive = small, poorly fitted or top-dose-only inhibition, or a rising curve; inactive = flat fitted curve, though single readings scatter; no compound was filed as active;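 note: 0% = full activity with enzyme and -100% = basal without enzyme; dose as in the result columns while the protocol names 77 µM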
# Target sequence (P06280 whole entry, looked up): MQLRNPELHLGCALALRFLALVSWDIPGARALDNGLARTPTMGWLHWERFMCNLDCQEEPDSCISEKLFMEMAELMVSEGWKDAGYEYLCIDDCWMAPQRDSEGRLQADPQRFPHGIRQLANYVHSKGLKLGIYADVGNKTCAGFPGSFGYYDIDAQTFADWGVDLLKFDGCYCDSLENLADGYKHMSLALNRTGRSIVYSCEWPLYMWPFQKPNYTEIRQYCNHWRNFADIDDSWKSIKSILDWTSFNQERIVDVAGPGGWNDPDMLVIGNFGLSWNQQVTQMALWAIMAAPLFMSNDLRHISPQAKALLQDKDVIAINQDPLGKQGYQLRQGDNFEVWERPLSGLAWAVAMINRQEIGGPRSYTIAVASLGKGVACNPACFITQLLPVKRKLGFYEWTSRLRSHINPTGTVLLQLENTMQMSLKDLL
# Numbers without * were called inactive; ? = inconclusive; · = not tested or not shown; & = joins results of further samples. Not all compounds are listed; count on the stated rates, not on these rows.
SMILES,Rango dissoc inh,Rango complex inh,miR-21 FLuc,GLA inh pH 4.5
O=C(NN1C(=O)NC2(CCCCC2)C1=O)c1ccc(-c2ccccc2Cl)o1,-8.9%,7.7%,·,·
O=C(/C=C/c1cccc(O)c1)c1cccnc1,3.4%,-0.7%,4.9%,-3.7
CCN1CCCC1CN(Cc1cc2cc(OC)ccc2[nH]c1=O)C(=O)NCc1ccccc1 (stereo unspecified),-22.2%,2.9%,-4.0%,1.9
O=C(NCCc1ccccc1)c1cccc(Br)c1,-4.6%,1.4%,-53.1%,·
O=C(Nc1cccc(Cl)c1)Nc1csc([N+](=O)[O-])c1,-15.0%,0.4%,26.2%,-5.7
CCCCCn1c(=O)[nH]c2cc(C(=O)NCCN3C(C)CCCC3C)ccc2c1=O (stereo unspecified),0.9%,-1.9%,0.7%,·
Cc1ccccc1-n1c(=O)c2c(n3cnnc13)-c1ccccc1CC21CCCCC1,-4.1%,0.6%,-9.2%,5.5
CC(C)NC(=O)N(Cc1ccccc1)Cc1cccs1,-1.6%,-0.2%,-2.2%,-8.0
O=C(c1cccc(F)c1)N1CCCC(C(=O)N2CCCCC2)C1 (stereo unspecified),0.5%,0.0%,0.2%,·
CC1CCCN(C(=S)NCCc2ccccc2)C1 (stereo unspecified),-3.7%,-3.4%,-40.6%,3.0
C1CCC(NC2=NCCC2)CC1,-9.2%,6.5%,-0.3%,-2.4
Cc1ccc(-n2ncc3c(NNC(=O)c4cccs4)ncnc32)cc1,-7.6%,0.2%,-1.8%,-0.1
COC(=O)c1oc2c(c1C)C(=O)CCC2,-6.6%,0.6%,-9.2%,5.9
O=C(Nc1ccccn1)c1ccc2c(c1)OCO2,11.5%,-0.1%,-25.8%,11.2
Cc1cc(NCc2ccccn2)nc2ccccc12,2.0%,1.4%,-24.6%,-4.6
C=CCOC(=O)C(C#N)c1nc2ccccc2nc1N1CCN(c2ccccc2OCC)CC1 (stereo unspecified),-14.8%,0.8%,-6.4%,8.1
CN1C(N)=NC(=O)/C1=C/c1ccc(F)cc1,-0.3%,4.6%,4.5%,1.0
CCN(C(=O)COC(=O)c1cc([N+](=O)[O-])ccc1N1CCOCC1)C1CCS(=O)(=O)C1 (stereo unspecified),11.7%,-2.1%,·,·
CC(C)(CNC(=O)c1ccc(S(=O)(=O)N2CCCC2)cc1)N1CCOCC1,-6.9%,-1.3%,-0.3%,10.4
CC1CN(S(=O)(=O)c2ccc(C(=O)Nc3sc4c(c3C(N)=O)CCN(C)C4)cc2)CC(C)O1 (stereo unspecified),·,·,-4.0%,3.5
COc1ccc(C2C3=C(Nc4ncnn42)c2ccccc2CCC3)cc1 (stereo unspecified),-24.0%,-1.6%,-18.5%,-2.0
CCOC(=O)c1ccc(CNC(=O)c2cc(C(C)(C)C)oc2C)o1,-4.6%,-2.4%,-9.8%,-3.5
Cc1cc(C)n(CCCNC(=O)COc2ccc([N+](=O)[O-])cc2)n1,-0.5%,1.1%,·,·
O=c1nc(SCc2c(F)cccc2Cl)nc(-c2ccccc2)[nH]1,1.5%,-2.3%,2.1%,0.5
O=C(CSc1nnc(-c2ccncc2)s1)Nc1ccc(Cl)c(C(=O)O)c1,13.3%,0.5%,11.8%,·
COCC(=O)Nc1nnc(COc2ccccc2)s1,0.9%,-4.3%,-10.8%,-6.8
CCOC(=O)c1sc(NS(=O)(=O)c2ccccc2Cl)nc1C,64.7%,-3.5%,-3.7%,-20.6
CCNC(=O)CSc1nnc(CN2CCCCCC2=O)n1-c1ccccn1,2.5%,-0.4%,-0.4%,-2.6
Cc1ccn(CCC(=O)O)n1,-12.2%,2.6%,0.3%,0.9
O=C(CN1C2=NCCN2c2ccccc21)c1ccco1,-3.9%,2.7%,1.6%,4.1
O=C(O)C1CCN(C(=O)c2csc(-c3ccc4c(c3)CCO4)n2)CC1,-9.3%,-1.3%,-2.1%,3.7
CC(C)(C)Cc1nnc(NC(=O)Cc2ccc([N+](=O)[O-])cc2)s1,-23.5%,3.6%,-0.1%,1.2
CCN(CC)c1ccc(NC(=O)Nc2ccc(C(C)=O)cc2)cc1,-12.1%,4.3%,-6.9%,-11.4
CC(=O)c1ccc(N2CCN(C(=O)c3cccs3)CC2)c(F)c1,3.8%,0.2%,-32.2%,·
Cc1cccc(N2CCN(C(=O)CCCn3c(=S)[nH]c4cc5c(cc4c3=O)OCO5)CC2)c1C,0.6%,-3.2%,-2.1%,-7.6
Cc1nn(C(C)(C)C)c(OC(=O)c2cccs2)c1Sc1ccccc1,-10.9%,3.7%,1.5%,9.2
N#Cc1ccccc1S(=O)(=O)N1CCN(CC(=O)NC(=O)NC2CCCCC2)CC1,28.4%,0.3%,·,·
Cc1ccnc(NC(=O)c2cc3ccccc3o2)c1,0.4%,-3.9%,·,·
CC(C)C[C@H](NC(=O)Nc1cccc(Br)c1)C(=O)O,-1.9%,4.3%,-2.7%,-10.4
C=CC[C@@H](CC(=O)N[C@@H](CO)Cc1ccccc1)C(=O)NC[C@H](OC(=O)[C@@H](CC=C)Cc1ccc(F)cc1)c1ccccc1,6.7%,-2.3%,·,·
CS(=O)(=O)c1nc(-c2ccccc2)cc(C(F)(F)F)n1,-7.6%,1.7%,?,3.5
COc1ccc(C2CC(=O)N3C(=C2C#N)SCC3(O)c2ccccc2)cc1 (stereo unspecified),?,?,7.2%,0.4
CC1=NN(C(=O)Cc2ccc([N+](=O)[O-])cc2)C(O)(c2cccnc2)C1 (stereo unspecified),19.4%,3.1%,-3.1%,-4.9
COCC(C)NC(=O)CSc1nc2cc(S(=O)(=O)N3CCCCC3)ccc2o1 (stereo unspecified),-13.3%,0.9%,·,·
CCN(CC)S(=O)(=O)c1ccc(N2CCOCC2)c(NC(=O)c2cc([N+](=O)[O-])ccc2Cl)c1,-20.0%,0.1%,-1.6%,-5.0
O=C(O)CCCC(=O)N1N=C(c2ccccc2)CC1c1cccs1 (stereo unspecified),-2.2%,-9.7%,-13.7%,2.2
CC(CCc1ccccc1)NC(=O)Cn1cccc1C(=O)c1ccccc1 (stereo unspecified),-10.1%,-0.4%,4.9%,·
COc1ccc(Cl)cc1NC(=O)COC(=O)CCCC1=NS(=O)(=O)c2ccccc2N1,-11.3%,-0.7%,-0.6%,·
O=S(=O)(NCCc1ccccc1)c1cnc(Cl)c(Br)c1,0.7%,0.4%,4.7%,·
COc1ccc(/C=C/CN2CCN(CC(C)C)C(CCO)C2)cc1 (stereo unspecified),-0.7%,-0.9%,-6.6%,-9.8
O=S(=O)(c1ccc(Cl)cc1)N1CCN(CCc2ccncc2)CC1,-0.6%,-1.6%,-1.5%,·
O=S(=O)(c1ccc(SCCOc2ccc(Cl)cc2)nc1)N1CCCC1,-16.2%,-1.1%,·,·
O=C(CN1CCc2ccccc2C1)Nc1ccc(OC(F)(F)F)cc1,17.9%,0.5%,-11.4%,·
Cc1cc(C(=O)NNC(=S)NCC2CCCO2)cs1 (stereo unspecified),-15.6%,1.2%,-3.8%,-10.8
Brc1ccccc1OCCCCN1CCCCC1,20.7%,-1.1%,-2.8%,·
CCCC(C)c1nnc(NC(=O)C2CCCO2)s1 (stereo unspecified),8.9%,4.2%,-27.3%,9.0
O=C(Nc1cccc2nsnc12)c1cccnc1Cl,-7.8%,-2.0%,-12.5%,-3.0
Cc1ccc(S(=O)(=O)c2c(N)n(C)c3nc4ccccc4nc23)cc1,-9.0%,-2.1%,-0.8%,?
CCOc1ccc(NC(=O)COC(=O)c2ccc3ncsc3c2)cc1OCC,11.4%,-0.1%,·,·
CCc1ccc(C(C)NC(=O)Cc2ccc(F)cc2)cc1 (stereo unspecified),-13.5%,-1.4%,-5.9%,0.5
# Remaining list, next part:
SMILES,Rango dissoc inh,Rango complex inh,miR-21 FLuc,GLA inh pH 4.5
CCOC(=O)c1c(NC(=O)Cc2ccccc2)sc2c1CC(C)(C)NC2(C)C,-0.9%,0.2%,2.9%,·
Cc1ccc(-n2c(=O)cc(N3CC(C)OC(C)C3)[nH]c2=O)cc1 (stereo unspecified),15.8%,3.9%,2.3%,12.3
Cc1ccc(NC(=O)CN(c2ccc(Cl)cc2)S(=O)(=O)c2cc([N+](=O)[O-])ccc2Cl)cc1,-3.0%,0.1%,-2.4%,-6.3
COc1cccc(C2C(C#N)=C(N)OC(C(C)(C)C)=C2C#N)c1 (stereo unspecified),-14.9%,-3.7%,-8.2%,1.1
CC(C)(C)NC(=O)COC(=O)CCC(=O)c1cccs1,12.8%,-2.3%,-1.0%,-2.3
CC1CC(=O)c2c(cc3c(-c4c(O)cc(O)c5c(O)c6c(cc45)OC(C)CC6=O)c(O)cc(O)c3c2O)O1 (stereo unspecified),?,10.5%,?,-5.0
CC1CN(C2CCN(C(=O)COc3ccccc3)CC2)CC(C)O1 (stereo unspecified),-0.6%,-0.5%,0.5%,-2.4
CC(=O)c1ccc(NC(=O)c2sc3nc4n(c(=O)c3c2C)CCCCC4)cc1,-6.1%,-3.4%,-28.8%,·
CCCCC(=O)Nc1ccc(NC(=S)NC(=O)CC)cc1OC,-7.5%,-0.1%,1.6%,6.7
CC(C)C(NC(=O)c1ccc2c(c1)OCO2)C(=O)N/N=C\c1ccco1 (stereo unspecified),6.3%,6.2%,-0.5%,8.6
Cc1c(C(=O)NNC(=O)c2ccncc2)oc2ccc(Br)cc12,-4.1%,1.2%,·,·
CCN(CC)S(=O)(=O)c1cccc(-c2nnc(SCC(=O)NC3CCCCCCC3)n2N)c1,6.0%,1.6%,9.0%,4.2
O=C(c1ccc(Cl)cc1)C(Cn1cncn1)C(Sc1ccccc1)c1ccccc1 (stereo unspecified),-0.8%,1.1%,?,-1.4
CCCCCCn1nc(C(=O)N(CCCC)c2c(N)n(CCC)c(=O)[nH]c2=O)c2ccccc2c1=O,-4.8%,0.3%,·,·
COc1ccc(CNC(=O)N2CCN(S(=O)(=O)c3ccccc3)CC2)cc1,-1.5%,1.9%,2.1%,·

# Single records (already shown). Values in the order: Rango dissoc inh | Rango complex inh | miR-21 FLuc | GLA inh pH 4.5
# Results for `O=C(NCCc1ccccc1)c1cccc(Br)c1` : -4.6% | 1.4% | -53.1% | ·
# Results for `C1CCC(NC2=NCCC2)CC1` : -9.2% | 6.5% | -0.3% | -2.4
# Results for `C=CC[C@@H](CC(=O)N[C@@H](CO)Cc1ccccc1)C(=O)NC[C@H](OC(=O)[C@@H](CC=C)Cc1ccc(F)cc1)c1ccccc1` : 6.7% | -2.3% | · | ·
# Results for `CC(=O)c1ccc(N2CCN(C(=O)c3cccs3)CC2)c(F)c1` : 3.8% | 0.2% | -32.2% | ·

# The listing continues.
SMILES,Rango dissoc inh,Rango complex inh,miR-21 FLuc,GLA inh pH 4.5
CCN1CCN(CC(=O)Nc2cc3c(cc2C(C)=O)OCO3)CC1,-2.1%,3.8%,-4.9%,-1.0
CN1CCN(C(c2cccc(C(F)(F)F)c2)c2nnnn2Cc2ccccc2)CC1 (stereo unspecified),7.7%,-1.4%,-11.9%,-8.2
COc1ccc(CNC2CCCC2)c(OC)c1OC,4.9%,-5.4%,-0.5%,1.8
CC(C)CC(=O)NC(=S)NNC(=O)c1ccc(NC(=O)C2CCCCC2)cc1,-2.0%,2.0%,13.0%,-4.7
COc1ccc(NC(=O)Cn2nnc(C(=O)NCCc3ccccc3)c2N)cc1,7.6%,3.1%,-14.2%&-22.5%,-0.9
Fc1ccc2cc(-c3ccccc3)ncc2c1,-12.3%,-0.1%,·,·
CC1CCC2(CC1)NC(=O)N(CC(=O)NCc1cccs1)C2=O (stereo unspecified),1.4%,-4.1%,-9.0%,-0.1
COc1ccccc1OCC(O)CN1CCOCC1 (stereo unspecified),-2.1%,-0.7%,-8.7%,·
CCOC(=O)C1=C(C)NC(C)=C(C(=O)OCC)C1c1cc2ccc(C)cc2[nH]c1=O,?,?,20.4%,-0.6
COc1cc(-c2nc(-c3ccccc3)c(-c3cccs3)[nH]2)cc(OC)c1O,-17.6%,?,18.9%,0.7
CCc1ccc(/C=C/C(=O)c2ccc(N3CCOCC3)cc2)cc1,-12.0%,1.4%,-12.5%,1.9
